# High-throughput results from PubChem BioAssay.
# Sa helicase inh = blocks Staphylococcus aureus DNA helicase. purified S. aureus helicase, fluorescence unwinding assay; about half of the hits fall short of the stated cut. inhibition, %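 (tested at about 80 µM)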. hit rate 0.05% among 120,000. AID 485395;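 active = both duplicates at 50% or more, or one of them with a favoured structure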;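 also: 0% = mean of negative control wells and 100% = mean of positive control wells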
# MgrA-DNA mod = alters Staphylococcus aureus MgrA binding to DNA; fluorescence polarization; inhibition, %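 (about 10 µg/mL by stock and volumes)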; hit rate 0.13% among 84,000;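 active = above 50% in either of two replicates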;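 also: 0% = protein plus DNA without compound and 100% = DNA alone without protein; higher means less MgrA bound to DNA so lower polarization; one replicate is shown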
# Starred values were filed as active, the others as inactive; / = not tested or not shown.
SMILES,Sa helicase inh,MgrA-DNA mod
CCc1nc2ccccc2c(C)c1C(=O)O,-2.0,/
NC(=O)COc1ccc(Cl)cc1,/,-1.2
CCOc1ccc(OCCC(=O)O)cc1,-23.0,-1.7
CC(C)c1ccc2c(ccc[n+]2C)c1,/,-0.9
O=C(COC(=O)c1ccc(Br)cc1)c1ccc(Br)cc1,6.0,2.9
COc1cccc(/C=N/c2c(-c3ccccc3)c(C(F)(F)F)nn2C)c1OC,/,-1.2
O=C(COc1ccccc1C(=O)O)NCc1ccccc1,14.0,0.8
COc1ccc(OC)c(NC(=O)Cn2cnc3c(nnn3Cc3ccc(F)cc3)c2=O)c1,-9.0,/
CN1CCN(c2ccc(NC(=O)Nc3ccc(C(F)(F)F)cc3)cc2)CC1,-12.0,/
Cc1nc(C)c(/C(O)=C/c2nc3cc(Cl)ccc3oc2=O)o1,-32.0,1.4
CC(O)CNc1ccc(C(F)(F)F)cn1 (stereo unspecified),-2.0,-2.5
N=C1c2ccccc2CN1Nc1ncc(C(F)(F)F)cc1Cl,-2.0,-2.4
CC1(C(=O)O)CCC(c2nc(N)n[nH]2)C1(C)C (stereo unspecified),1.0,/
O=C(O)CC1c2ccccc2CCN1S(=O)(=O)c1ccccc1 (stereo unspecified),4.0,/
Nc1cccc(-c2csc(N)n2)c1,16.0,/
CCOC(=O)c1ccc(N2C(=N)S/C(=C\c3cnn(-c4ccccc4)c3)C2=O)cc1,-36.0,/
CN1CCN(c2ccc3nnc(CCC(=O)Nc4nccs4)n3n2)CC1,1.0,2.7
CNC(=O)COc1ccc(S(=O)(=O)N2CCOCC2)cc1C,21.0,-0.4
CCN1C(=O)C(=Cc2ccc(OC(F)F)cc2)C(=O)N(CC)C1=S,12.0,/
CCCc1cc(=O)[nH]c(SCC(=O)c2cc(C)n(C)c2C)n1,-6.0,/
CCC1=NN(C(=O)C(C)C)C(O)(C(F)(F)F)C1 (stereo unspecified),-9.0,1.2
CCOc1cc(CNCC(c2ccc(OC)cc2)N2CCCCC2)ccc1OC(C)C(=O)N(C)C (stereo unspecified),8.0,/
COc1cccc(C(=O)Nc2cccc3c2C(=O)NC3=O)c1OC,2.0,/
COc1ccc(C2C(C)C3(O)CC(C#N)(C(=O)N3)C2(C#N)C#N)cc1 (stereo unspecified),4.0,-3.5
CCCNC(=O)c1cc(C)nn1-c1ccccc1,7.0,0.4
Cc1ccc(CNc2nc(N)n(-c3ccccc3)n2)cc1,4.0,/
Cc1sc(N)c(C(=O)c2cccs2)c1C,/,5.2
N#CC1=C(N)Oc2n[nH]c(CSc3ccccc3)c2C1Cc1ccccc1 (stereo unspecified),11.0,-0.6
CC(C)(C)NC(=O)Oc1ccc(Cl)cc1,/,0.3
Cc1cnc(C(=O)N2CCN(c3ccc(C(F)(F)F)cn3)CC2)cn1,/,-2.4

# In a second layout: entries from further up
> CCC1=NN(C(=O)C(C)C)C(O)(C(F)(F)F)C1 (stereo unspecified)
  Sa helicase inh = -9.0
  MgrA-DNA mod = 1.2

> CCOc1cc(CNCC(c2ccc(OC)cc2)N2CCCCC2)ccc1OC(C)C(=O)N(C)C (stereo unspecified)
  Sa helicase inh = 8.0
  MgrA-DNA mod = /

> COc1cccc(C(=O)Nc2cccc3c2C(=O)NC3=O)c1OC
  Sa helicase inh = 2.0
  MgrA-DNA mod = /

> COc1ccc(C2C(C)C3(O)CC(C#N)(C(=O)N3)C2(C#N)C#N)cc1 (stereo unspecified)
  Sa helicase inh = 4.0
  MgrA-DNA mod = -3.5

# (further entries)
SMILES,Sa helicase inh,MgrA-DNA mod
CC(=O)Nc1ccc(C2C3=C(CCCC3=O)Nc3c2c(C)nn3-c2nc3ccccc3s2)cc1 (stereo unspecified),3.0,/
O=C1OCc2ccc(NS(=O)(=O)c3ccccc3)cc21,/,-1.2
O=C(CCNc1cccc(Cl)c1)c1ccco1,13.0,4.0
CC(OC(=O)CN1C(=O)COc2ccccc21)C(=O)NCc1cccs1 (stereo unspecified),8.0,16.2
CCCC(=O)Nc1ncnc2c1ncn2C1O[C@H]2COP(=O)(O)O[C@@H]2[C@@H]1OC(=O)CCC (stereo partly specified),/,3.8
CC(C)Cn1c(NC(=O)Nc2ccccc2F)c2ccccc2nc1=O,6.0,/
NC(=S)c1cc(-c2ccccc2)c(C(F)(F)F)s1,/,-1.0
Cc1nn(-c2ccccc2)c(C)c1NC(=O)COC(=O)c1ccccc1,-9.0,/
CC1(C)CC(N=Cc2c(O)[nH]c(=O)[nH]c2=O)CC(C)(C)N1,13.0,-1.6
O=S(=O)(c1ccc(-c2cnco2)cc1)N1CCCC1c1ccc(F)cc1 (stereo unspecified),/,-0.1
CCOc1ccc(O)c(C=NC2CCCC2)c1,-11.0,/
CN1c2ccsc2C(=O)/C(=C\N=S(C)(=O)c2ccc(Cl)cc2)S1(=O)=O (stereo unspecified),1.0,/
COc1cc(C=Nc2cc(Cl)ccc2O)ccc1O,18.0,2.9
CN(C)CC#CCC1(O)c2ccccc2-c2ccccc21,9.0,/
C=CCNc1nc2ccccn2c(=O)c1/C=C1\SC(=S)N(C)C1=O,-87.0,/
Cc1ccc(C(=O)OC2CSC2)cc1,2.0,-2.2
Cc1nnc(SCC(N)=O)c2ccccc12,/,0.2
COc1cccc(-c2nn(C)c3sc(C(=O)NCC4COc5ccccc5O4)cc23)c1 (stereo unspecified),-7.0,/
Cc1ccn2cc(C(=O)O)nc2c1,/,-1.9
C=CCNC(=S)Nn1c(-c2ccccc2)nc2ccc(I)cc2c1=O,11.0,-4.7
CCc1cccc(NS(=O)(=O)c2ccc3c(c2)CC(=O)N3)c1,1.0,7.0
CCOC(=O)c1ccc(Nc2ncnc3ccccc23)cc1,4.0,-1.2
CC(C)C[C@H]1C(=O)N2CCC[C@H]2[C@]2(O)O[C@](NC(=O)[C@@H]3C=C4c5cccc6[nH]c(Br)c(c56)C[C@H]4N(C)C3)(C(C)C)C(=O)N12,/,1.5
O=C(CSc1c2c(nc3ccccc13)CCCC2)N1CCCc2ccccc21,12.0,0.1
O=C(c1ccc(F)cc1)N1N=C(c2c(-c3ccccc3)c3cc(Br)ccc3[nH]c2=O)CC1c1ccco1 (stereo unspecified),/,2.0
Cc1cc(C2=Nc3ccccc3SC(c3c(F)cccc3Cl)C2)ccc1Cl (stereo unspecified),/,-0.5
CC1=C(C(=O)OCCOc2ccccc2)C(c2cccc(Br)c2)NC(=O)N1 (stereo unspecified),/,-0.1
CCC(=O)Nc1ccc(OC)cc1OC,/,-0.1
O=C1/C(=C/c2ccco2)CC/C1=C\c1ccco1,-20.0,/
O=C(CSc1nnc2[nH]c(=O)ccn12)N1CCc2ccccc21,3.0,/
CC(N)=NCCc1ccncc1,/,4.5
CC1CCC(NC(=O)CCn2c(=O)c3cccn3c3cccnc32)CC1 (stereo unspecified),-2.0,0.2
COC(=O)c1cc(=O)[nH]c(=S)[nH]1,-13.0,/
O=C(/C=c1\[nH]c(=O)/c(=C/c2cccnc2)s1)c1ccc(Cl)cc1,-7.0,6.2
Cc1ccc(OCC(O)CNCc2ccccc2)cc1C (stereo unspecified),/,0.1
CC1(C)CC(CCN)(Cc2ccccc2)CCO1 (stereo unspecified),-1.0,-2.3
CC(=C/C(=O)O)/C=C/c1ccccc1,17.0,9.3
CC(=NCCCn1ccnc1)c1c(C(F)(F)F)[nH]n(-c2nc3ccccc3s2)c1=O,3.0,2.5
COC(=O)c1ccc(N2CCc3ccccc32)s1,-10.0,/
Cc1ccc2oc(=O)n(S(C)(=O)=O)c2c1,3.0,/
CN1CCN(C(=O)CNC(=O)c2ccc(-c3ccccc3)cc2)CC1,-9.0,/
O=C(COC(=O)C1CCCN(C(=O)c2ccc(Cl)cc2)C1)c1ccc2c(c1)OCO2 (stereo unspecified),-10.0,/
COC(=O)Cc1nc(NS(=O)(=O)c2ccc(OC(F)(F)F)cc2)sc1C,/,-3.7
CC(NC(=O)NC1CCCCC1)c1ccc2c(c1)OCO2 (stereo unspecified),0.0,-0.2
COc1ccc(CNC(=O)c2cncc(Br)c2)cc1,11.0,/
Cc1nc2sccn2c(=O)c1S(=O)(=O)Nc1ccc2c(c1)OCCO2,1.0,-1.2
CC(=O)N1CN(CCCn2ccnc2)Cc2c1sc1c2CCCC1,14.0,4.4
CCOC(=O)CC1NC(=O)c2ccccc21 (stereo unspecified),-4.0,-2.2
CCOC(=O)c1c(-c2ccccc2)csc1/N=C/c1nc(-c2ccco2)oc1O,-110.0,/
CC(C(=O)Nc1nc2ccc(S(=O)(=O)N3CCOCC3)cc2s1)N1C(=O)c2ccccc2C1=O (stereo unspecified),8.0,/

# Later entries
SMILES,Sa helicase inh,MgrA-DNA mod
CCOc1ccc(OCCNCc2cn(CCC#N)nc2-c2ccccc2)cc1,4.0,/
CC(C)CNC(=O)CSc1nc(-c2ccc(F)cc2)cc(C(F)(F)F)n1,12.0,-0.8
CCN(CC)c1nc2c(c(=O)n(Cc3ccccc3)c(=O)n2C)n1Cc1ccccc1,6.0,-3.0
O=C(Nc1nnc(C2CC2)s1)Nc1ccccc1C(=O)Nc1nnc(C2CC2)s1,20.0,/
Clc1ccc(OCc2ccccc2)c(Cl)c1,9.0,-5.3
COc1ccc(CNC(=O)CSC(C)(C)C)cc1OC,-2.0,/
CN(CC(=O)N1CCCCC1)S(=O)(=O)c1cnc[nH]1,8.0,/
FC(F)(F)Oc1ccccc1NCn1nnc2ccccc21,/,-0.4
O=C(CCCCn1c(=O)[nH]c2ccsc2c1=O)N1CCN(Cc2ccc3c(c2)OCO3)CC1,-13.0,/
COc1ccc(CN2C(=O)CC(C(=O)Nc3ccc(OC)cc3)SC2=Nc2ccccc2)cc1 (stereo unspecified),/,-2.4
O/N=C/c1ccc(N2CCOCC2)cc1,-2.0,-3.4
O=C(Cc1cccs1)Nc1nc2ccccc2s1,15.0,5.5
COc1ccc(NC(=O)CSc2nccn2-c2ccc(F)cc2)c(OC)c1,17.0,/
CCc1ccccc1Nc1n[nH]c(=S)s1,/,11.1
COC(=O)C1=C(C)OC(N)=C(C#N)C1c1c(C)nn(-c2ccccc2)c1Cl (stereo unspecified),9.0,-2.1
CC1=CC(C)C2C(=O)N(c3ccc[n+](C)c3)C(=O)C2C1 (stereo unspecified),-14.0,1.4
COc1ccc(C2=CSC3=NS(=O)(=O)CCN23)cc1OC,18.0,/
Oc1ccc(CN2CCN(c3ccccc3)CC2)c2cccnc12,3.0,5.8
NC(=O)c1cnn(-c2ccc(C(F)(F)F)cn2)c1N,3.0,-1.8
Clc1ccc(-c2nnc3n2-c2ccccc2SC3)cc1,6.0,/
CCC(C)c1ccccc1OCC(O)CNC(C)C (stereo unspecified),-10.0,/
Cc1ccn(CCC(=O)N(C)Cc2ccco2)n1,18.0,/
COc1ccc(NC(=O)c2sc3nc4n(c(=O)c3c2C)CCCCC4)cc1,10.0,-0.3
Cc1ccc(-n2c(C)csc2=NC(=O)c2ccccc2)cc1,-18.0,/
O=C(CC(=O)N1CCc2ccccc21)N1CCc2ccccc21,/,1.2
CCNc1nc(NCC)n2c(SCC(=O)NC3=C(C(=O)OCC)C4CCCC4S3)nnc2n1 (stereo unspecified),7.0,/
COc1ccc(NC(=O)C(c2ccc(C)cc2)N(C)C(=O)c2ccc(=O)[nH]c2)cc1 (stereo unspecified),14.0,-0.9
CCS(=O)(=O)c1ncc(CO)n1CCc1ccccc1,3.0,-0.5
CN(Cc1ccccc1)C(=O)c1cccc(F)c1,-6.0,/
COC(=O)c1cc(CNCC2(N3CCCCC3)CCCCC2)oc1C,-15.0,/

# Compound profiles, as listed above:
# N=C1c2ccccc2CN1Nc1ncc(C(F)(F)F)cc1Cl as listed: Sa helicase inh = -2.0; MgrA-DNA mod = -2.4
# COc1cccc(/C=N/c2c(-c3ccccc3)c(C(F)(F)F)nn2C)c1OC as listed: Sa helicase inh = /; MgrA-DNA mod = -1.2

# (more compounds)
SMILES,Sa helicase inh,MgrA-DNA mod
CCN(C(=O)CSc1nc(C)cc(COC)c1C#N)c1ccccc1,7.0,5.0
Cc1oc(-c2ccc(C(=O)NCc3ccco3)cc2)nc1COc1ccccc1,34.0,/
O=C1NNC(=S)Nc2ccccc21,23.0,/
COc1ccc(Cl)cc1CN1CCCCC1,8.0,-0.5
Cc1ccc(S(=O)(=O)N(Cc2ccccc2)CC(C)C(=O)O)cc1 (stereo unspecified),6.0,1.7
COC(=O)C1CC2C=CC1C2 (stereo unspecified),-17.0,/
Cc1ccc(-c2nc3sc4nc5ccccc5nc4n3n2)cc1,-1.0,0.9
COc1ccc(OC)c(C2CC(=O)C(C(C)C)C(c3cc(OC)ccc3OC)N2)c1 (stereo unspecified),13.0,/
CCOc1ccc(CCNC(=O)C2c3ccccc3C(=O)N3CCc4ccccc4C23)cc1OCC (stereo unspecified),12.0,0.7
CC(=O)Nc1ccc(-c2cn(CC(=O)NN)cn2)cc1,-7.0,2.2

# Random excerpt: five records from the list, in no set order.
SMILES,Sa helicase inh,MgrA-DNA mod
COc1ccc(OC)c(C2CC(=O)C(C(C)C)C(c3cc(OC)ccc3OC)N2)c1 (stereo unspecified),13.0,/
Cc1ccc(S(=O)(=O)N(Cc2ccccc2)CC(C)C(=O)O)cc1 (stereo unspecified),6.0,1.7
Cc1ccc(-c2nc3sc4nc5ccccc5nc4n3n2)cc1,-1.0,0.9
CCN(C(=O)CSc1nc(C)cc(COC)c1C#N)c1ccccc1,7.0,5.0
CCOc1ccc(CCNC(=O)C2c3ccccc3C(=O)N3CCc4ccccc4C23)cc1OCC (stereo unspecified),12.0,0.7

# Next structures follow:
SMILES,Sa helicase inh,MgrA-DNA mod
CCn1c(SCC(=O)O)nnc1-c1cccs1,-5.0,/
CO[C@H]1O[C@H](COC(C)=O)[C@@H](OC(C)=O)[C@H](OC(C)=O)[C@H]1OC(C)=O,16.0,/
COc1ccc(-c2nnc(SCc3c(Cl)cccc3Cl)o2)cc1,22.0,1.6
FC(F)(F)C1=CC(c2ccccc2)=NCCN1,13.0,-0.7
CCN1CCN(C(=O)C2CCN(Cc3cc(Cl)ccc3O)CC2)CC1,2.0,-4.3
CCS(=O)(=O)c1ccc2oc(SCC(=O)N3c4ccccc4CC3C)nc2c1 (stereo unspecified),5.0,/
Cc1nc2ccccc2c(=O)n1/N=C/c1ccsc1,2.0,1.7

# These rows are one share of the data; count on the stated rates, not on these rows.
